Bioassay records: PubChem, National Center for Advancing Translational Sciences (NCATS)
HPGD inh = HPGD (human) dehydrogenase inhibition | P15428 | purified HPGD, NADH fluorescence kinetic, PGE2 substrate | Potency, µM, without a hit: at the highest dose activity change, negative = inhibition, hits mostly inhibitors | 150,000 tested, 4.3% active | AID 894; active = well fitted inhibition curve with a large enough effect (not every such curve was filed as active); inconclusive = small, poorly fitted or top-dose-only effect, or another doubt; inactive = no such curve, though single readings can be large or run the other way;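 also: top concentration of the series not given in the record; plate controls included wells without enzyme; inactives centre near -10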
Target sequence (P15428 whole entry, looked up): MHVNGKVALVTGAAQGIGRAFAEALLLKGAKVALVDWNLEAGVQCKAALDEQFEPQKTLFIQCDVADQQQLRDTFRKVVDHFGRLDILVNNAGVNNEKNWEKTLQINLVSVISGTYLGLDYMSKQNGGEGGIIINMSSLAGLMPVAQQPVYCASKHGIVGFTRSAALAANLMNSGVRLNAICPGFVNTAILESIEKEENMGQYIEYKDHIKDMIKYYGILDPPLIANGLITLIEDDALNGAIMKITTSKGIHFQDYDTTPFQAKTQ
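20 nM HPGD preincubated 15 min at room temperature with compound in 50 mM Tris-HCl pH 8, 0.01% Tween 20. Started with 1 mM NAD+ and 30 uM prostaglandin E2; NADH fluorescence (360/450 nm) read 5 times over 30-s intervals, last minus first.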
* marks the source's active call; other numbers are inactive results; u = inconclusive. % is scaled to controls: 0 for no effect and ±100 for the full control effect; potency is read from the fitted curve at half-maximal effect. Only part of the results is shown. The share of hits here may be higher or lower than overall.

HPGD inh | compound
-4.4% | O=C(CN1C(=O)C2CC=CCC2C1=O)NC1=NCCS1 (configuration not stated)
-1.1% | CC(C)CNC(=S)N1CCN(C)CC1
-10.9% | COc1ccc(Nc2nnc(SCC(=O)N3CCCC3)s2)cc1
-0.5% | Cc1ccc(-n2nc(C)c(C3(O)C(=O)N(C(C)C)c4ccccc43)c2N)cc1 (configuration not stated)
-8.6% | CC(C)CNC(=O)c1ccccc1NC(=O)CN(c1ccc2c(c1)OCCO2)S(C)(=O)=O
-3.4% | Cc1ccc(-n2ncc3c(=O)n(CC(=O)NC4CCCC4)cnc32)cc1C
-1.3% | Cc1ccc(C)c(OCC(=O)N2CCOCC2)c1
20µM* | N#CCc1ccc(C(=O)c2ccccc2F)s1
1.3% | Cc1cc(NC(=O)C2CC(c3ccc(Cl)cc3)=NO2)no1 (configuration not stated)
-9.7% | CN1c2ccccc2Oc2c(c(=O)n(C)c(=O)n2C)C1c1cccc([N+](=O)[O-])c1 (configuration not stated)
-6.3% | CN(C)c1ccc(CN(C(=O)COc2ccc(Br)cc2)C2CCS(=O)(=O)C2)cc1 (configuration not stated)
-8.2% | CC(=O)c1c(C)[nH]c(C(=O)OCC(=O)Nc2sc3c(c2C#N)CCCC3)c1C
-3.2% | COc1ccccc1NC(=O)CCc1nc(-c2cccs2)no1
-19.2% | CCCC(=O)c1ccc(N2CCN(C(=O)c3ccc(Br)cc3)CC2)c(F)c1
-20.9% | CC(C)c1ccc(/C=N/NC(=O)c2nnn(-c3nonc3N)c2CSC2=NCCS2)cc1
-10.0% | CCOC(=O)C1CCCN(C(=O)c2ccc([N+](=O)[O-])c(C)c2)C1 (configuration not stated)
-15.3% | c1ccc(-c2cccc(N3CC4(CCNCC4)C3)c2)cc1
-15.5% | Cc1cccc(OCc2nnc(SCc3nc4cc(C(F)(F)F)ccc4c(=O)[nH]3)o2)c1
-21.3% | Cc1ccccc1OCCN1C(=O)C(=O)c2cccc(C)c21
-3.0% | COc1ccc(NS(=O)(=O)c2cccc(Cl)c2Cl)cc1S(=O)(=O)N1CCCCC1

The listing continues.
HPGD inh | compound
-7.8% | CC1CC(C)CN(CCCNC(=O)Cn2ncc3c(=O)oc4ccccc4c32)C1 (configuration not stated)
u | COCc1cc(C)nc(NCCc2ccccc2)c1C#N
-17.2% | Cc1cccc(NC(=S)N/N=C2/CCCCc3ccccc32)c1
-11.4% | CCC(CC)C(=O)Nc1cc([N+](=O)[O-])ccc1F
-26.0% | O=C(Nc1cc(=O)[nH]c2ncnn12)c1ccc(Cl)cc1Cl
-3.6% | COc1ccc(NC(=O)CSc2nc3ccccc3c(=O)n2CCNC(C)=O)c(OC)c1
-15.9% | CCn1c(SCC(=O)Nc2ccccc2OC)nc2ccccc2c1=O
-13.8% | Cn1cnc2nc3n(c2c1=O)CCC3
2.6% | Cn1cccc1/C=C1\SC(=O)N(CC(=O)Nc2ccc(Cl)cc2)C1=O
-5.3% | CN=C(NC#N)NCCSC[C@H]1N=CN=C1C
-24.7% | CCCCC(=O)Nc1cccc(-c2cn3ccsc3n2)c1
-3.5% | COc1ccc(OC)c(NC(=O)CSc2nc3cccnc3n2C)c1
-25.9% | CCOc1cc(C2Nc3cccc4cccc(c34)N2)ccc1O
-14.5% | CC(c1ccccc1)C1C(C#N)=C(N)OC2=C1C(=O)CC(C)(C)C2 (configuration not stated)
-6.0% | COc1ccc2c(c1)C(C)CC(C)(C)N2C(=O)CSc1nc2ccccc2s1 (configuration not stated)
-21.3% | O=C(CSc1ncnc2sc3c(c12)CCCC3)c1ccccc1
-2.0% | Cc1ccc(-n2c(SCC(=O)NCc3ccco3)nnc2-c2cccnc2)c(C)c1
u | Cn1c(=O)n(C)c2cc(/C=N/n3cnnc3)ccc21
u | CCCCn1nc2cc(C(=O)NCc3ccc(C(F)(F)F)cc3C(F)(F)F)ccc2c1OCC
-4.1% | CN(C)CCNS(=O)(=O)N(C)C

The results go on.
HPGD inh | compound
-1.9% | Cc1nc(CC(=O)N2CCN(S(=O)(=O)c3ccccc3C#N)CC2)cs1
-10.3% | Cc1c2ccccc2nc2c(F)c(NC(C)C)c(F)c(F)c12
-2.2% | Cc1ccc(N(Cc2ccc([N+](=O)[O-])cc2)C(=O)c2ccco2)cc1
-17.6% | O=S(=O)(Nc1cccc2c1ccc1cccn12)c1cccs1
-13.5% | CN(Cc1ccccc1)c1nc(CN2CCOCC2)nc2scc(-c3ccccc3)c12
u | Cc1cccc(N2CCN(C(=O)CS(=O)(=O)Cc3nc(-c4ccccc4F)oc3C)CC2C)c1 (configuration not stated)
-9.3% | O=C(Nc1cc(C(F)(F)F)ccc1F)C1CCCCC1
-3.5% | CCCCNC(c1ccccc1)c1ccncc1 (configuration not stated)
-6.2% | CN(C)C(=O)CN(c1ccc2c(c1)OCO2)S(C)(=O)=O
14.1µM* | COc1ccc(/C=C2\CCn3c2nc2cc(C(=O)O)ccc2c3=O)cc1O
-6.7% | Cn1c2c(c(=O)n(C)c1=O)C(c1ccccc1Cl)CC(=O)N2 (configuration not stated)
-15.4% | c1ccc(-c2nc3cc4ccccc4cc3[nH]2)nc1
-1.4% | CCN(CC)C(=O)CSc1nc(O)c(Cc2ccccc2)c(=O)n1-c1ccccc1
-9.6% | Cc1nnc(N(C)C(=O)c2ccccn2)s1
-15.6% | C=CCc1cc(OC)ccc1OCC(O)CN1CCN(c2ccc(OC)cc2)CC1 (configuration not stated)
u | C(=C\c1ccco1)/C1=NN(c2ccccc2)C(c2ccco2)C1 (configuration not stated)
-20.8% | Cc1ccc(S(=O)(=O)c2c(C)cc(C)nc2Oc2cccc(C(F)(F)F)c2)cc1
-18.5% | CCOC(=O)C1=C(C)N(c2ccccc2)C(=O)/C1=C\c1ccco1
-8.8% | C=CCC(CC=C)(NC(=O)c1ccccc1)c1ccccc1
-8.2% | CCOC(=O)Cc1nnc(NC(=O)CSc2ccc(Cl)cc2)s1

(continued)
HPGD inh | compound
-11.0% | CC(C)OP(=O)(OC(C)C)C(Nc1ccccc1)c1ccccc1C(F)(F)F (configuration not stated)
-8.4% | COc1ccc(OC)c(NC(=S)N(CCc2c(C)[nH]c3ccccc23)Cc2cccs2)c1
-9.4% | CCCCOC(=O)C(C#N)c1nc2ccccc2nc1N1CCN(Cc2ccc3c(c2)OCO3)CC1 (configuration not stated)
-12.5% | O=C(CCn1nnc2ccccc21)N1CCN(c2ccccc2)CC1
-5.3% | COc1ccc(OCC(=O)N2CCN(C(=O)COc3ccc(Br)cc3)CC2)cc1
u | c1csc(Cn2c(-c3cccs3)nc3ccccc32)c1
-25.6% | O=C(COC(=O)c1ccco1)NCC1CCCO1 (configuration not stated)
-3.8% | Cc1onc(-c2ccccc2)c1C(=O)NC(C)C1CCCO1 (configuration not stated)
-5.3% | C=CCN1C(=O)CN=C1Nc1cc(C)cc(C)c1
-10.2% | COc1cccc(-c2csc3nnc(SCC(=O)c4ccc(NC(C)=O)cc4)n23)c1
-14.4% | CCOC(=O)Nc1nc(-c2ccc(F)cc2F)cs1
-6.2% | Cc1ccc(C(=O)NCCn2cc(SCC(=O)Nc3cc(C)on3)c3ccccc32)cc1
-5.4% | COc1cc(NC(=S)NCCCN2CCOCC2)cc(OC)c1
-7.7% | NS(=O)(=O)c1cccc(NC(=O)CCSc2ccccc2Cl)c1
-16.1% | CCCN(/C=N/c1sc2c(c1C#N)CCCCC2)CCC
-11.6% | Cc1c(CNC(=O)c2cnn3c2NC(c2ccccc2)CC3C(F)(F)F)cnn1C (configuration not stated)
1.1% | CCCn1c(SCC(=O)N2CCCc3ccccc32)nnc1-c1ccco1
5.1% | CN(C)c1ccc(CNC2C3CC4CC(C3)CC2C4)cc1 (configuration not stated)
-16.6% | O=C(NCc1cccnc1)C1CCCN(S(=O)(=O)c2ccc(Cl)cc2)C1 (configuration not stated)
-14.0% | O=S(=O)(NCc1ccco1)c1cnc(Cl)c(Br)c1

Continued; it opens with the 3 that closed the last part.
HPGD inh | compound
5.1% | CN(C)c1ccc(CNC2C3CC4CC(C3)CC2C4)cc1 (configuration not stated)
-16.6% | O=C(NCc1cccnc1)C1CCCN(S(=O)(=O)c2ccc(Cl)cc2)C1 (configuration not stated)
-14.0% | O=S(=O)(NCc1ccco1)c1cnc(Cl)c(Br)c1
-29.6% | O=C(Nc1ccon1)c1ccc(Br)o1
-2.8% | Nc1ccc(N2CCN(c3ccc(Cl)c(Cl)c3)CC2)cc1
-15.3% | CCCCc1ccc(-c2csc(/C(C#N)=C\c3ccc(C)o3)n2)cc1
-7.1% | Cc1cc(=O)[nH]c(SCC(=O)NCCc2ccccc2)n1
-6.9% | Cc1ccccc1OCC(=O)NN1Cc2ccccc2C1=N
-3.9% | CC(C)(C)c1[nH]nc2c1C(C1C=CCCC1)C(C#N)=C(N)O2 (configuration not stated)
u | C(=C/c1ccnc2nc(SC/C=C/c3ccccc3)nn12)/c1ccccc1
-8.0% | Cc1csc(NC(=O)c2ccc(C)o2)n1
20µM* | CC(=O)N1CCN(c2ccc(NC(=O)C(C)Oc3ccc(Cl)cc3Cl)cc2)CC1 (configuration not stated)
u | Cc1cc(C)cc(OCC(=O)Nc2cccc(-c3nc4ncccc4o3)c2)c1
-2.8% | COc1cc(/C=C/c2ccc3cccc(OC)c3n2)c(OC(C)=O)c([N+](=O)[O-])c1
-4.1% | CCOC(=O)C(CCCCOc1ccc([N+](=O)[O-])cc1)C(=O)OCC
-10.8% | CCn1cc(C(=O)NCCCOC)c(=O)c2cc(S(=O)(=O)N(C)C)ccc21
11.2µM* | CC1CCN(c2[nH]c(=S)c(C#N)c3c2CCCC3)CC1
31.6µM* | O=C(Cc1ccccc1)NCc1ccc2c(c1)OCO2
-4.8% | CC1Cc2nc(SCC(N)=O)n(C)c(=O)c2S1 (configuration not stated)
-2.5% | Cc1cc(C(=O)N/N=C/c2cccnc2)c(C)o1
-7.0% | CCOC(=O)Cc1csc(NC(=O)c2cccs2)n1
-8.4% | Cc1ccccc1-n1c(C)nnc1SCc1nc2ccccc2s1
-1.6% | CC1=NNC(=S)NCCCN2CCN(CCCNC(=S)NN=C(C)C=NNC(=S)NCCCN3CCN(CCCNC(=S)NN=C1)CC3)CC2

With a hit mark in HPGD inh, of those listed so far:
HPGD inh | compound
20µM* | N#CCc1ccc(C(=O)c2ccccc2F)s1
14.1µM* | COc1ccc(/C=C2\CCn3c2nc2cc(C(=O)O)ccc2c3=O)cc1O
20µM* | CC(=O)N1CCN(c2ccc(NC(=O)C(C)Oc3ccc(Cl)cc3Cl)cc2)CC1 (configuration not stated)
11.2µM* | CC1CCN(c2[nH]c(=S)c(C#N)c3c2CCCC3)CC1
31.6µM* | O=C(Cc1ccccc1)NCc1ccc2c(c1)OCO2

The listing picks up, starting 2 compounds before the break.
HPGD inh | compound
-8.4% | Cc1ccccc1-n1c(C)nnc1SCc1nc2ccccc2s1
-1.6% | CC1=NNC(=S)NCCCN2CCN(CCCNC(=S)NN=C(C)C=NNC(=S)NCCCN3CCN(CCCNC(=S)NN=C1)CC3)CC2
-14.7% | Cn1c(CCNC(=O)c2ccccc2)nc2ccccc21
-3.7% | O=C(NC1CCCC1)c1ccccc1-c1nc2ccccc2[nH]1
u | O=C(CC12CC3CC(CC(C3)C1)C2)NCC(=O)OCc1cc(=O)oc2ccc3ccccc3c12
-16.7% | CCS(=O)(=O)Nc1cccc(C2=NN(S(=O)(=O)c3ccc(F)cc3)C(c3cccs3)C2)c1 (configuration not stated)
0.5% | O=S(=O)(c1ccccc1)c1nc(-c2ccco2)oc1NCc1ccco1
-21.6% | CC(CN1CCCCC1)OC(=O)C1c2ccccc2Oc2ccccc21 (configuration not stated)
-13.2% | CCCN1C(=O)c2cc(C(=O)O)ccc2C1O (configuration not stated)
-2.6% | CN(Cc1ccccc1)c1ccc(S(=O)(=O)N2CCOCC2)cn1
-3.6% | CCOC(=O)N1CCN(C(=O)C2CCC(CNS(=O)(=O)c3ccc(Cl)cc3)CC2)CC1 (configuration not stated)
-10.6% | CCOc1ccc(N(C(=O)/C=C/C(=O)Nc2cc(C)on2)C(C(=O)NC2CCCC2)c2ccccc2C)cc1 (configuration not stated)
-7.1% | C/C(=N/NC(=O)c1ccccc1O)c1ccc(N2C(=O)C3CCCCC3C2=O)cc1 (configuration not stated)
-2.1% | CN1CCc2nc3ccc(Cl)cc3c(-c3ccccc3Cl)c2C1
u | COC(=O)C1=CN(CC2CCCO2)C=C(C(=O)OC)C1c1ccccc1C(F)(F)F (configuration not stated)
-10.1% | Cc1nn(CC(=O)N(C)Cc2ccc(F)cc2)c(C)c1[N+](=O)[O-]
-13.1% | COc1cccc2c1CCC1CC(=O)CC[C@@]21C (some centres not stated)
-2.5% | CC1CC(NC(=O)N(C)C)N(C)C(=O)N1 (configuration not stated)
-5.2% | Cc1ccccc1N1CC(=O)N(c2ccccc2C)CC1=O
-27.8% | COc1ccc(OC)c(CNC(=O)CCCc2cn(C)c3ccccc23)c1
-26.9% | c1ccc(-c2noc(-c3ccc4ccccc4c3)n2)nc1
-27.1% | COc1ccc(C(=O)/C=C/Nc2ccc(S(=O)(=O)Nc3onc(C)c3C)cc2)cc1

(listing goes on)
HPGD inh | compound
u | S=c1[nH]nc(C2CCCCC2)n1/N=C/c1ccco1
-12.8% | COC(=O)c1ccc(NC(=O)Cn2nnc3ccccc32)cc1
-9.2% | COCCn1c(C)cc2c(c1=O)C(c1ccccc1F)C(C#N)=C(N)O2 (configuration not stated)
1.0% | CC(=O)Nc1cccc(OCC(O)Cn2c(C)nc3ccccc32)c1 (configuration not stated)
-14.4% | CCc1cc2ccc(OC)cc2nc1SCC(=O)Nc1cc(C)on1
-5.0% | Cc1nc(NC(=O)C(C)Oc2cccc(Cl)c2)sc1C(=O)N(C)C (configuration not stated)
-10.1% | CC(C)(C)C(=O)/C=c1\[nH]c(=O)/c(=C\c2ccc(C#N)cc2)s1
